# eIF4H inh = human eIF4H binding inhibitors, primary screen, translation initiation inhibitor project, biochemical, uHTS, fluorescence polarization. Eukaryotic translation initiation factor 4H (Homo sapiens), Q15056. eIF4H fluorescence polarization binding assay. inhibition, % at 35 µM. 290,000 compounds, 0.94% hits. AID 2012, 2009;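 active means 50% or more with normal probe brightness, or confirmed in later tests; inconclusive means above 50% with abnormal brightness, or retests that disagree; inactive means below 50% or failed in later tests; about a fifth of its hits are not listed in these tables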;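 further: calls also rest on retests at 20 µM and on dose response follow-up; 0% = protein and probe with vehicle and 100% = probe without protein; strong numbers were not always called active; many hits fall short of the cut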
# CSC inhib = cancer stem cell viability inhibitors, primary screen, luminescence | cancer stem cell-like cells viability | inhibition, % at 7.5 µM | 300,000 compounds, 1.1% hits | AID 2717, 2010;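 active means mean at 75% or more and at least half the replicates too; inconclusive means mean and replicates disagree; tested in HMLE shEcad cells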;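 further: 0% = median of negative and 100% = median of positive control wells; the first replicate is given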
# MT1-MMP act inh = blockers of MT1-MMP proenzyme processing, primary screen, HT1080 RFP-PRO-GFP cells, GFP/RFP fluorescence | 360,000 compounds, 0.061% hits | GFP/RFP ratio fluorescence, overnight; percent of plate control window, DMSO zero | GFP/RFP ratio change, % at 20 µM | AID 651647, 2012;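 active means GFP/RFP ratio change of at least 30% with cell ATP level not reduced by more than half and red fluorescence within 50% of control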; further: strong numbers were not always called active
#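 Assay system: RFP-PRO-GFP reporter HT1080 cells; read-out basis: GFP/RFP fluorescence ratio; benchmarks: DMSO wells and RFP-L50D-GFP cells; doses: 20 µM single dose, 1% DMSO; schedule: overnight cell settling, then overnight compound exposure, 37 °C, 5% CO2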
# Rce1 inh = yeast Rce1p protease inhibitors, primary screen, biochemical, fluorescence, cell-free homogeneous | 290,000 compounds, 0.27% hits | calls only | yeast membranes, quenched prenylated peptide cleavage fluorescence | CAAX prenyl protease 2 (Saccharomyces cerevisiae (strain ATCC 204508 / S288c)), Q03530;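 active means fall in fluorescence gain of 50% or more versus controls, with final raw signal at or below 3038400; inconclusive means same 50% fall but final raw signal above 3038400; inactive means fall in fluorescence gain under 50%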;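 further: plate controls were neutral control wells for no effect and wells lacking membranes for full effect; tested at 10 µM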
# Target sequence (Q03530 whole entry, looked up): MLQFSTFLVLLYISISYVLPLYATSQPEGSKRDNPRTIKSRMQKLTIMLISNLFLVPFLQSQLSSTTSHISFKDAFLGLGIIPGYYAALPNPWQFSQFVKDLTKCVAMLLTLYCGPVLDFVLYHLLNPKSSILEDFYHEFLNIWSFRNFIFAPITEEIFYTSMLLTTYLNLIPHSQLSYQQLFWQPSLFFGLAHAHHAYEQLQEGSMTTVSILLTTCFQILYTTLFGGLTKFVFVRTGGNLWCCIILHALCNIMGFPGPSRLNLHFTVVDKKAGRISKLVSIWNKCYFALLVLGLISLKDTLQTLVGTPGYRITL
# Env fusion inh = inhibitors of HIV-1 Env-driven cell-cell fusion, primary screen, HeLa-JRFL effector, CEM21 target cells, luciferase; inhibition, % at 12.3 µM; 360,000 compounds, 1.1% hits;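 active means mean replicate inhibition score of at least 50 and every replicate individually at or above 50; inconclusive means only one of the two criteria met; inactive means mean below 50 and not all replicates reaching 50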;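 further: 0% = plate neutral controls and 100% = maraviroc near 300 nM; one replicate is shown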
# Yeast UUG start = modulators of yeast start codon fidelity, primary screen, whole organism, S. cerevisiae, single point, plate reader | S. cerevisiae UUG-firefly luciferase reporter, luminescence/redox ratio | activity score, % at 18.7 µM | 350,000 compounds, 0.13% hits;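 active means replicate mean at a twofold rise or more, about +100% in these data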;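 further: firefly luciferase made from a UUG start codon reports start codon fidelity; reporter light over untreated wells divided by growth signal over untreated wells; some hits fall short of that in this replicate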
# PABP FP inh = PABP poly(A) RNA binding inhibitors, primary screen, biochemical, fluorescence polarization, uHTS; Polyadenylate-binding protein 1 (Homo sapiens), P11940; inhibition, % at 35 µM; 290,000 compounds, 1% hits; AID 2014, 2009;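 active means 50% or more with normal probe brightness, or confirmed in later tests; inconclusive means above 50% with abnormal brightness, or retests that disagree; inactive means below 50% or failed in later tests; about a fifth of its hits are not listed in these tables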;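 further: calls also rest on retests at 20 µM and on dose response follow-up; controls were probe without protein and protein plus probe with vehicle; some compounds called inactive have numbers as strong as hits; many hits fall short of the cut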
# MT1-MMP act inh RFP = further read-out of MT1-MMP act inh, marked with its call; RFP signal change, %; measured here: RFP expression control read;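 0 = vehicle wells; hits needed this value within 50% of zero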
# Numbers without * were called inactive; i = inactive; ? = inconclusive; · = not tested or not shown; & = joins results of further samples; [ ] = another dose, or the depositor's remark. This is a subset (hit frequency here may not be typical).
SMILES,eIF4H inh,CSC inhib,MT1-MMP act inh,MT1-MMP act inh RFP,Rce1 inh,Env fusion inh,Yeast UUG start,PABP FP inh
Cc1ccc(NC(=O)COC(=O)c2ccc(F)cc2Cl)c(Br)c1,-9.5,8.2,0.2,-3.2,i,-57.5,-5.6,0.5
Cc1ccc(S(=O)(=O)N2CCN(C(=O)COC(=O)CSc3ccccc3)CC2)c(C)c1,·,-5.7,5.0,4.3,i,-1.4,·,·
CCOc1ccc(C(=O)CCC(=O)Nc2cccc(S(=O)(=O)N3CCCCC3)c2)cc1,·,-1.2,3.7,-13.0,·,·,-2.9,·
CC(=O)c1cc(Cl)ccc1OCc1cccc(S(=O)(=O)N2CCOCC2)c1,·,-12.3,1.5,-8.0,i,22.2,·,·
Cc1ccc2c(c1)COc1c3ccc(C(=O)N[C@@H](CO)C(C)C)cc3nn1-2,-7.0,1.9,6.6,-1.0,i,-109.5,-13.0,12.1
CN(c1ccccc1)S(=O)(=O)c1ccc(C(=O)OCC(=O)NC(N)=O)cc1,0.6,10.4,-3.4,1.4,i,-5.4,·,-1.0
Cc1c(C(=O)N/N=C/c2ccoc2)cccc1[N+](=O)[O-],15.1,-3.1,0.7,3.7,i,-15.7,2.8,16.5
CCNCC(=O)N1c2ccccc2CCc2ccc(NC(C)=O)cc21,-6.0,10.2,8.4,5.0,i,·,-7.3,6.7
COc1ccc(-n2cnc3c(sc4nccc(N(C)C)c43)c2=O)cc1,-0.1,-1.8,-6.4,-8.7,i,44.4,-22.9,-5.5
Cc1ccc(S(=O)(=O)N2CCOCC2)cc1C(=O)N1CC(C)OC(C)C1 (centres undefined),·,-11.4,11.0,2.6,i,-49.2,-15.3,·
COc1c(Br)cc([N+](=O)[O-])c(OC)c1C(=O)NC(=O)Nc1nc(C)cc(C)n1,3.4,0.4,0.3,-0.2,i,9.7,·,15.1
O=C(Oc1ccc(Cl)c2cccnc12)C12CC3CC(CC(C3)C1)C2,-13.2,38.7,6.1,5.4,i,·,·,0.2
O=C(O)CCCC(=O)NCCc1ccncc1,-13.1,·,-1.0,-0.8,·,-54.8,-18.8,-1.0
CC1=C(C(=O)N(C(C)C)C(C)C)CC(CC(=O)NC2CCCCC2)C(=O)N1Cc1ccccc1 (centres undefined),·,·,2.1,0.3,·,-1.8,-6.2,·
CNc1cccc(-c2c(OC)cccc2OC)n1,·,·,-3.8,-0.7,·,13.8,-16.7,·
N#Cc1ccc(OCC(=O)Nc2cccc(S(=O)(=O)NC3=NCCCCC3)c2)cc1,·,-8.9,2.6,-3.5,i,-2.1,·,·
COc1ccc(CN2C[C@@H](CO)O[C@@H](n3cnc4c(N5CCOCC5)ncnc43)C2)cc1,·,·,-0.8,3.4,·,-14.7,-2.5,·
O=C(CS(=O)(=O)Cc1ccccc1)Nc1nc2c(s1)CCCC2,-13.2,-2.4,-7.4,7.6,i,-23.4,-1.1,1.3
COc1ccc(C2/C(=C(/O)c3ccc4c(c3)CC(C)O4)C(=O)C(=O)N2CCCN2CCOCC2)cc1 (centres undefined),1.8,-9.0,-4.7,-1.7,i,-14.0,-8.4,1.4
COc1ccc(C(=O)N2CCCN(C)CC2)cc1S(=O)(=O)N(C)Cc1ccccc1,·,-8.4,0.8,-1.5,·,·,-9.7,·
C=CC(C)(C)c1c(O)c(CC=C(C)C)c(O)c2c(=O)c3ccc(O)c(O)c3oc12,·,-7.0,-8.1,-33.6,i,·,-16.7,·
NC(=O)c1nsnc1-c1ccccc1O,0.4,-16.1,-3.8,2.8,i,·,-18.4,4.9
Cc1ccc(-c2nc3ccccc3n2C)o1,-1.5,20.3,0.5,2.1,i,-96.6,-18.9,6.3
NS(=O)(=O)c1cc(C(=O)OCC(=O)NC2CCCCCCC2)ccc1Cl,·,·,-2.2,3.5,·,-68.8,8.2,·
CC(=O)n1cc([C@@H]2C=C(C(=O)N3CCN(Cc4ccc5c(c4)OCO5)CC3)O[C@H](OCc3ccc(CO)cc3)C2)c2ccccc21,-15.5,13.4,1.4,-8.7,i,12.6[16.7 µM],-6.9&17.4,-21.1
COc1ccccc1/C=N/OCc1cc(C(C)=O)ccc1OC,0.9,-7.5,-0.7,-2.3,i,16.3,-2.2,-4.0
Cc1nn(Cc2cccc(C(=O)NC3CCCCC3)c2)c(C)c1Cl,-5.8,-16.1,-3.4,-14.2,i,·,-10.9,0.5
CC1CCN(S(=O)(=O)c2ccc3c(c2)c(=O)c(C(=O)NCc2cccs2)cn3C)CC1,-1.2,-1.2,-1.0,-6.3,i,·,-13.0,1.5
COc1ccc(C(=O)CCC(=O)Nc2ccc(N3CCN(C)CC3)cc2)cc1OC,·,·,1.9,3.8,·,10.2,-13.1,·
Cc1cccc(NC(=O)c2ccccc2-c2ccccc2)c1,-7.3,7.2,1.7,3.2,i,-7.3,·,-7.3
Cc1oc(-c2ccccc2Cl)nc1CS(=O)(=O)CC(=O)NC1CCCC1,-6.2,-11.4,6.5,-1.8,i,4.5,-16.8,5.0
COc1cccc(NC(=O)CN(C)C(=O)c2c(-c3c(F)cccc3Cl)noc2C)c1,·,9.0,-1.7,1.2,·,·,-13.5,·
O=C(C[C@H]1C[C@H](C(=O)N2CCOCC2)[C@@]2(CCC3CCCC3)c3[nH]c4ccc(Cl)cc4c3CCN2C1=O)NCCc1ccccn1,·,·,-7.7,-11.2,·,-22.5,-8.8,·
COc1cccc(CNC(=O)CSCc2cnn(-c3ccccc3)c2-n2cccc2)c1OC,8.7,28.1,3.7,-3.5,i,-52.1,-24.3,-3.4
Cc1ccccc1Cn1c(C)c(C(=O)NCc2ccc(Cl)c(Cl)c2)sc1=O,·,·,-3.1,-3.1,·,-30.1,-17.8,·
Cc1c(NC(=O)c2cc3ccccc3o2)cccc1-n1cnnn1,·,·,3.4,1.0,·,-34.7,-1.4,·
Cc1nnsc1C(=O)NNC(=O)Nc1ccccc1,-5.8,2.3,-0.8,-0.8,i,-4.9,·,-6.7
Cc1cc(C)c(C)c(S(=O)(=O)N[C@@H](C)C(=O)OCc2cc(=O)n3cc(Br)ccc3n2)c1C,?,-11.0,-3.3,-3.2,i,-12.4,-2.4,?
Cc1ccc(NC(=O)c2ccco2)c(NC(=O)C2CCCO2)c1 (centres undefined),-9.4,-10.5,-0.6,1.6,i,0.3,-4.8,-4.6
CC1=C(C(=O)OC(C)C)C(c2ccccc2Cl)CC(=O)N1 (centres undefined),8.5,10.1,-2.9,-1.4,i,-31.1,-17.7,5.5

# One compound at a time, as listed above. Screens in order: eIF4H inh | CSC inhib | MT1-MMP act inh | MT1-MMP act inh RFP | Rce1 inh | Env fusion inh | Yeast UUG start | PABP FP inh
# `Cc1nnsc1C(=O)NNC(=O)Nc1ccccc1` as listed: -5.8 | 2.3 | -0.8 | -0.8 | i | -4.9 | · | -6.7
# `Cc1ccc(NC(=O)COC(=O)c2ccc(F)cc2Cl)c(Br)c1` as listed: -9.5 | 8.2 | 0.2 | -3.2 | i | -57.5 | -5.6 | 0.5
# `Cc1ccc(NC(=O)c2ccco2)c(NC(=O)C2CCCO2)c1` (centres undefined) as listed: -9.4 | -10.5 | -0.6 | 1.6 | i | 0.3 | -4.8 | -4.6

# Going on with the list.
SMILES,eIF4H inh,CSC inhib,MT1-MMP act inh,MT1-MMP act inh RFP,Rce1 inh,Env fusion inh,Yeast UUG start,PABP FP inh
Cc1ccccc1C(=O)N1CCN(C(c2ccccc2)c2ccccc2)CC1,3.9,1.9,-7.4,-5.6,i,10.6,·,8.6
CCOC(=O)N1CCN(CCc2ccccc2)CC1,-0.1,-7.9,0.9,2.2,i,-18.8,-13.5,10.3
CCCCN1CC(COCc2ccccc2)Oc2cccc(Oc3ccccc3)c2S1(=O)=O (centres undefined),·,·,-3.0,-12.6,·,34.4,-3.8,·
NC(=O)Cc1ccc(OCc2nn[nH]n2)cc1,·,·,-2.1,0.5,·,-6.1,-11.3,·
CCc1cc(C(=O)N2CCCC(C(=O)c3ccc(OC)c(F)c3)C2)n(C)n1 (centres undefined),9.0,-9.3,0.8,-6.6,i,4.2,-19.4,13.5
COc1cc(/C=C2\C(=N)N3N=C(S(C)(=O)=O)SC3=NC2=O)ccc1OC(=O)c1ccco1,-12.5,-14.8,-37.3,17.6,i,-1.6,-21.1,4.2
O=C(NCCC1=CCCCC1)C1CCN(S(=O)(=O)c2ccccc2C(F)(F)F)CC1,·,8.7,-0.8,-2.5,i,11.3,·,·
COc1cc(/C=C/C(=O)OCC(=O)Nc2sc3c(c2C#N)CCC(C)C3)ccc1OCC#N (centres undefined),11.4,12.9,-3.1,3.2,i,-5.1,·,-10.7
O=C(CC(C(=O)O)c1ccc(Cl)cc1Cl)c1ccc(Cl)cc1 (centres undefined),6.0,0.3,-0.2,5.4,i,-4.4,-18.7,0.1
COc1ccc(OC)c(S(=O)(=O)N2Cc3ccccc3CC2C(=O)O)c1 (centres undefined),11.3,-17.3,-2.6,2.0,i,-10.6,-25.2,3.0
Cc1cc(NC(=O)C2CCN(S(=O)(=O)c3cnc[nH]3)CC2)ccc1Br,-5.0,-1.2,-4.9,-5.3,i,5.3,-20.5,0.8
Cc1noc(C)c1CSc1nnc(-c2cccnc2)n1C1CCCCC1C (centres undefined),3.9,·,1.2,5.5,i,-15.3,-18.4,-3.3
CCCCCCP(=O)(O)c1ccccc1,-4.3,-0.5,0.9,1.0,i,-27.2,-6.2,7.3
Cc1nc(SCC(=O)NCCN2C(=O)CSC2=O)nc(C)c1C,·,2.1,1.5,2.3,·,·,-18.8,·
COc1ccc(C(=O)c2ccccc2)c(OCC(=O)N(C)C)c1,2.6,-2.2,1.1,5.9,i,4.2,·,8.6
CCN(CC)S(=O)(=O)c1cccc(NC(=O)COC(=O)CCc2nc3ccccc3s2)c1,-4.6,-9.3,-2.8,3.7,i,·,4.2,0.4
CCN1C(=O)C(=O)N(CC(=O)Nc2ccccc2OC(F)F)C1=O,·,-12.8,-2.5,-1.7,·,12.4,-10.0,·
COC(=O)c1c(NC(=O)Cc2ccccc2)sc(C)c1C,-5.0,7.6,-2.4,-4.3,i,·,3.1,-9.9
Cc1cc(Cl)ccc1OCCCC(=O)NCCN1C(=O)S/C(=C\c2cccnc2)C1=O,0.9,2.0,-3.7,-2.3,i,-9.7,-7.0,-3.4
O=C(c1cccc([N+](=O)[O-])c1)N1CCN(C(=O)c2ccco2)CC1,6.7,-1.0,0.3,3.6,i,1.0,1.5,3.4
CC(C)OC(=O)c1cccnc1SCc1cc(=O)n2ccccc2n1,-4.6,7.7,1.2,3.4,i,1.2,-5.3,-10.3
NC(=O)C1CCN(C(=O)C(=O)c2cn(CC(=O)N3CCCCCC3)c3ccccc23)CC1,0.1,7.8,-3.6,3.7,i,23.1,-1.7,13.6
Cc1ccccc1OCCC(=O)OCC(=O)NC(=O)c1ccccc1,·,-7.3,5.1,2.8,i,·,-18.2,·
c1ccc(CN2CCOCCOCCOCCOCCOCCOCC2)cc1,9.8,-1.0,0.5,1.9,·,-7.2,-3.1,7.4
Cc1cc(C)c(C(=O)COc2cccnc2[N+](=O)[O-])cc1C,19.4,-34.7,-41.7,9.5,·,·,-8.4,22.4

# Source: PubChem BioAssay (several laboratories)
